VDR inhibitor: blocks the human vitamin D receptor; VDR-SRC2-3 peptide fluorescence polarization, 2 h; 400,000 tested, 0.93% active; P11473; AID 504847; Potency, µM, without a hit: max response, negative = inhibition, hits mostly inhibitors; active = well fitted inhibition curve with a large enough effect; inconclusive = small, poorly fitted or top-dose-only effect, or another doubt; inactive = no such curve, though single readings can be large or run the other way; also: series mostly up to about 120 µM
Target sequence (P11473 whole entry, looked up): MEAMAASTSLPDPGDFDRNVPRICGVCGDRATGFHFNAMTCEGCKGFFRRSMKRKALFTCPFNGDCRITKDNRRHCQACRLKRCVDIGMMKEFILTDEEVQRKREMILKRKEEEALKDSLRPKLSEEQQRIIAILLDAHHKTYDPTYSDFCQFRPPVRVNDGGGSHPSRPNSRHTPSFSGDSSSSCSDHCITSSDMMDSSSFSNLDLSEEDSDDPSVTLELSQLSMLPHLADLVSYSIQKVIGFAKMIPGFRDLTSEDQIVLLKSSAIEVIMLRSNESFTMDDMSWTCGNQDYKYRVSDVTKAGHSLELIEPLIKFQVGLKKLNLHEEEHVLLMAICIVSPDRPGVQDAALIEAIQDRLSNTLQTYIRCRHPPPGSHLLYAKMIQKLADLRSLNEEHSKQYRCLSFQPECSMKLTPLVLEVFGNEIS
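Inhibition of the VDR/SRC2-3 peptide interaction is quantified by fluorescence polarization. Compounds (23 nl, pintool) incubate with the reagents for 2 hours at ambient room temperature.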
* hit, by the source's call; ? = inconclusive; & = joins results of further samples; [ ] = dose if it differs, or a comment. % is scaled to controls: 0 for no effect and ±100 for the full control effect; potency is read from the fitted curve at half-maximal effect. The list is partial; the hit share may differ from the screen's.

VDR inhibitor	mol
0%	COc1ccc(-c2nn(-c3ccccc3)cc2/C=C/C(=O)N2CCN(c3ccccn3)CC2)cc1
-10%	CCC1C(C#N)=C(SCC(N)=O)NC2=C1C(=O)CC(C)(C)C2 (centres undefined)
20%	O=C(NC1CC2CCCC(C1)N2C(=O)Nc1ccccc1F)C1CC1 (centres undefined)
-2%	CCCNC(=O)Cn1c(=O)/c(=C/c2ccc(-c3cccc([N+](=O)[O-])c3)o2)s/c1=C\C(=O)C(C)(C)C
2%	Cc1cccc(OCC(O)CN2CCN(S(=O)(=O)c3ccc(C)cc3C)CC2)c1 (centres undefined)
-3%	O=C(CNC(=O)c1ccc(F)cc1)N/N=C/c1cc(Br)ccc1OCc1ccccc1
-19%	CCCCC(=O)N/N=C/c1ccc(-c2ccc([N+](=O)[O-])cc2)o1
-1%	CC1=C(C(=O)NC2CCCc3c2cnn3-c2ccc(F)cc2F)OCCO1 (centres undefined)
-10%	N#Cc1c(C(F)(F)F)cc(-c2cccs2)nc1SCC(=O)Nc1ccc(F)cc1
?	N#Cc1sc2nc(-c3ccccc3)cc(-c3ccco3)c2c1N
2%	Cc1cccc(N2CC(C(=O)Nc3ccc(S(=O)(=O)N4CCOCC4)cc3)CC2=O)c1 (centres undefined)
-12%	COc1cc(OC)c(S(=O)(=O)Nc2ccccc2NC(=O)CN2CCOCC2)cc1NC(C)=O
0%	O=C(CN1C(=O)NC2(CCCCC2)C1=O)Nc1ccccc1N1CCCCC1
-2%	CCCn1c(CN(Cc2ccccc2)Cc2ccccc2)nc2c1c(=O)n(C)c(=O)n2C
1%	CCSc1nc2c([nH]c3ccccc32)c(=O)n1CC
14%	COc1ccc(C(=O)Nc2ccc(S(=O)(=O)N(Cc3ccccc3)c3ccccc3)cc2)cc1
4%	O=C(Nc1ccccc1Br)c1cc(S(=O)(=O)NC2CCCCC2)ccc1F
-23%	CCCCc1cc(=O)oc2cc(C)c(CN3CCCC3)c(O)c12
12%	CC1Cc2ccccc2N1C(=O)c1ccc(N2CCCC2)c([N+](=O)[O-])c1 (centres undefined)
-16%	CCN1CCN(c2ccc(N3CCN(S(=O)(=O)c4ccc(C)c([N+](=O)[O-])c4)CC3)nn2)CC1
15%	COC(=O)c1ccccc1NC(=O)C1CCCN(c2ncnc3onc(C)c23)C1 (centres undefined)
7%	CC(C)c1nc2ccc(C(=O)NCc3ccccc3Br)cc2o1
-8%&-2%	O=C(NCCN1CCN(c2ccccc2)CC1)Nc1cccc(Br)c1
-17%	Cc1ccc2nc(NC(=O)CSc3nnc(C)c(=O)n3N)sc2c1
-9%	COc1ccc(CNC(=O)C2CCCN(S(=O)(=O)N3CCC(C)CC3)C2)c(OC)c1 (centres undefined)
?	S=C(Nc1cccc(Cl)c1Cl)N1CCC2(CC1)OCCO2
11%	O=C(NCC1c2ccccc2CCN1C(=O)CN1C(=O)c2ccccc2C1=O)C1CCCCC1 (centres undefined)
-23%	CCOCCn1c(=O)c2c(nc3n2CCN3c2ccc(CC)cc2)n(C)c1=O
-28%	Cc1nn(C)c(C)c1/C=C/C(=O)c1ccc(Cl)cc1Cl
-9%	O=C(N/N=C/c1ccccn1)c1cc(C2CC2)nc2ccccc12
1%	O=C(CCCSCCCC(=O)NN=Cc1ccccc1)NN=Cc1ccccc1
-7%	O=C(CCS(=O)(=O)c1ccccc1)Nc1ccccc1-c1nc2ccccc2s1
-5%	CCc1ccc(NC(=O)c2sc3nc(-c4ccccc4)cn3c2C)cc1
16%	CC(=O)Nc1ccc(C(=O)NCC2CCCCC2)cc1
-15%	Cc1noc(C)c1COC(=O)c1ccccc1Oc1ccccc1
-5%	O=C(NCc1ccccc1)c1cc2sccc2n1Cc1ccc(Cl)cc1
10%	CC1CCCCN1C(=O)N[C@@H](Cc1ccccc1)C(=O)O (some centres undefined)
-27%	COc1ccc(Nc2ncccc2C(=O)Nc2ccccc2)cc1
17%	COc1ccccc1NC(=O)CSc1nc2ccccc2c(=O)n1CCC(=O)NC1CCCCC1
-4%	O=c1oc(CCCO)cc2ccc(C#Cc3cccnc3)cc12
-1%	COc1cccc(/C=N/Nc2nccnc2Cl)c1O
-3%	Cc1noc(C)c1C(=O)N1CCC[C@@]2(CCN(C(=O)NC(C)C)C2)C1
3%	CC(C)c1ccc(NC(=O)CSC2=Nc3ccccc3C3=NC(CCC(=O)NCc4cccs4)C(=O)N23)cc1 (centres undefined)
4%	COC(=O)N/N=C/c1cn(Cc2c(Cl)cccc2Cl)c2ccccc12
-8%	CCOc1ccc(OCCC(=O)Nc2ccc(F)cc2C)cc1
13%	CC(C)CN(C(=O)CSc1nnc2ccccn12)C1CCS(=O)(=O)C1 (centres undefined)
-2%	O=C(Nc1nc(-c2ccc(Cl)cc2Cl)cs1)c1ccc(OCC2CCCO2)cc1 (centres undefined)
50%[activator]	O=C(N/N=C/c1ccc(Cl)cc1)c1ccc2c(c1)OCO2
-8%	Cc1ccc(CC(=O)Nc2cccc([N+](=O)[O-])c2)cc1
-5%	COC(=O)Cc1ccc(NC(=S)Nc2ccccn2)cc1
-11%	Cc1ccc(C(C)C)c(OCC(=O)NNC(=O)Cn2[nH]c(=O)c3ccccc3c2=O)c1
-3%	Cc1ccc(C)c(OC(C)C(=O)Nc2nccs2)c1 (centres undefined)
3%	CC(C)n1c(CCCO)nc2ccccc21
2%	Cc1ccccc1C(=O)NC(=S)N(C)CCc1ccccn1
-17%	Cc1ccc(C)c(S(=O)(=O)c2cn(C)c3cc(F)c(F)cc3c2=O)c1
?	CCC(C)S(=O)(=O)c1oc(-c2ccc(F)cc2)nc1S(=O)(=O)c1ccc(F)cc1 (centres undefined)
-1%	O=c1cc(CSc2ccc(Cl)cc2)nc(N2CCOCC2)[nH]1
-6%	CN(Cc1ccc(Cl)cc1Cl)C(=O)CNC(=O)c1ccco1
61%[activator]	Oc1c(Br)cc(Br)cc1/C=N/NC(=S)N[C@H]1CC2C=CC1C2 (some centres undefined)
7%	Cc1ccc(C(=O)Nc2ccc(-c3nc4ccccc4o3)cc2)cc1Cl

A few values from the list:
VDR inhibitor, COC(=O)N/N=C/c1cn(Cc2c(Cl)cccc2Cl)c2ccccc12 : 4%
VDR inhibitor, COc1ccccc1NC(=O)CSc1nc2ccccc2c(=O)n1CCC(=O)NC1CCCCC1 : 17%
VDR inhibitor, Cc1ccc(C(=O)Nc2ccc(-c3nc4ccccc4o3)cc2)cc1Cl : 7%
VDR inhibitor, COC(=O)Cc1ccc(NC(=S)Nc2ccccn2)cc1 : -5%

Continued.
VDR inhibitor	mol
2%	CCOC(=O)c1c(C)oc2c(CN3CCN(C)CC3)c(Br)c(OC)c(O)c12
0%	CC(=O)Oc1ccc(C(=O)NCc2ccco2)cc1
8%	C/C(=N\NC(=O)c1cccc(Cl)c1)c1cccc(NC(=O)C(C)C)c1
-5%	CCOc1ccc(S(=O)(=O)NCCC(=O)NCC(c2ccc(OC)cc2)N2CCCCC2)cc1 (centres undefined)
-17%	CCN1C(=O)C(=Cc2cccc(OC)c2Oc2ccc([N+](=O)[O-])cc2[N+](=O)[O-])SC1=S
-17%	CCc1ccc(C(C)NC(=O)c2cc(C)oc2C)cc1 (centres undefined)
-2%	O=C(Nc1ccc(S(=O)(=O)Nc2nccs2)cc1)c1cc(-c2ccccc2Cl)nc2ccccc12
-4%	N#C/C(=C\c1ccco1)C(=O)NCC1CCCO1 (centres undefined)
-11%	O=C(OCc1cccc(F)c1)c1ccc2c(c1)-c1ccccc1C2=O
1%	Cc1nnc(SCC(=O)N2CC(=O)Nc3ccccc32)n1C
-9%	CCOC(=O)c1[nH]c(C)c(C(=O)Nc2cc(Cl)ccc2C)c1C
8%	CCOC(=O)C(C)n1cnc2c(nnn2-c2ccc(C)cc2)c1=O (centres undefined)
45µM*	COc1ccc(OC)c(Nc2nc(=O)c3cccnc3s2)c1
5%	COC(=O)C1=C2c3[nH]c4ccccc4c3CCN2C(=O)CC1
-20%	O=S(=O)(Nc1cc(S(=O)(=O)N2CCCC2)ccc1O)c1ccc(Cl)s1
10%	COc1ccc(/C=C2\SC(N)=NC2=O)cc1Cl
-6%	C=CCn1c(SCC(=O)Nc2cc(C)cc(C)c2)nnc1-c1cnccn1
-5%	O=C(Nc1ccc(Cl)cc1F)C1CCN(S(=O)(=O)c2cccc3nonc23)CC1
-12%	CC1CCC(NC(=O)C2(C)CCC(=O)N2Cc2cccnc2)CC1 (centres undefined)
?	CC(=O)N(CCC(Cc1ccccc1)c1ccco1)Cc1ccco1 (centres undefined)
-7%	CC(NCC(O)COCCC12CC3CC(CC(C3)C1)C2)c1ccccc1 (centres undefined)
-15%	CC1CCCN(C(=O)CSc2nnc(-c3ccco3)n2C)C1 (centres undefined)
-1%	CCC1CN(C(=O)N2CCC(C(=O)N3CCN(c4ccccc4F)CC3)CC2)c2ccccc2O1 (centres undefined)
-16%	COc1ccc(NC(=O)C(Cc2ccccc2)NS(=O)(=O)c2ccc3c(c2)CCN3C(C)=O)cc1 (centres undefined)
12%	CCN1CCN(S(=O)(=O)c2ccc(Cl)c(C(=O)NC3CCC(C)CC3)c2)CC1 (centres undefined)
7%	COCCNC(=O)C(c1ccco1)N(C(=O)Cn1nnc2ccccc21)c1ccc(C)cc1C (centres undefined)
6%	COc1c(C)cc(Br)cc1C(=O)NCc1cccnc1
-5%&3%&-2%	CCCCOC(=O)c1cc2c(cn1)[nH]c1ccccc12
-21%&16%	Cc1cccc(N(C)C(=O)CN2C(=O)COc3ccc(S(=O)(=O)N4CCCCCC4)cc32)c1
-4%	CC1(C)CCCC2=C1CC1C(=O)N(N)C(=O)C1C2 (centres undefined)
-19%	CCN(Cc1ccccc1)S(=O)(=O)c1cc(C(=O)NCCCN(C)C)ccc1OC
-13%	COC(=O)c1ccccc1NC(=O)NC1CCC(C)CC1 (centres undefined)
-10%	COc1ccc(-c2c(C#Cc3ccsc3)c3cc(-c4ccc(OC)nc4)ccc3n2C)cc1
4%	Cn1c(=O)c2[nH]c(N3CCN(c4ccccc4)CC3)nc2n(C)c1=O
-1%	CC(Nc1ccccc1)c1ccncc1 (centres undefined)
-6%	O=C(CN1CCN(C(=O)c2ccco2)CC1)Nc1ccc2c(c1)OCCO2
-21%	CC(C)NC(=O)c1ccc(C(C)C)cc1
-5%	COc1cc(NC(=O)C2=C(C)Nc3nnnn3C2c2ccc(SC)cc2)c(OC)cc1Cl (centres undefined)
2%	COc1ccc(NC(=O)CSc2ccc(-c3cccnc3)nn2)cc1
0%	COC(=O)NC(c1ccccc1)c1c[nH]c2ccc(OC)cc12 (centres undefined)
-18%	CSc1ncc(F)c(N(CCO)CCO)n1
-2%	Cc1cccc(NCc2ccc(Br)cc2)n1
-6%	CN(CC(=O)Nc1cccc(C(F)(F)F)c1)Cc1ccccc1
-18%	CCn1c(NCc2ccco2)nc2ccccc21
-4%	Cc1cccc(OCCCCc2c(C)n[nH]c2C)c1C
5%	CC(=O)c1cccc(N2C(=O)C3C4CCC(C4=C(C)C)C3C2=O)c1 (centres undefined)
0%	CC1CC(=O)Nc2ccccc2N1C(=O)CSc1ncnc2sccc12 (centres undefined)
-4%	CCOC(=O)c1cnc(SCC(=O)Nc2ccc(NC(=O)CC)c(OC)c2)nc1N
4%	Cc1cc(=O)oc(C)c1C(=O)Nc1cccc2nonc12
-1%	Nc1nnc(C2CCCC2)s1
1%	COc1cccc(C2(O)CCN(C(=O)Cc3cccnc3)CC2)c1
-5%	Cc1ccc(NCC(=O)Nc2ccc(Br)cc2)cc1C
8%	COc1ccc(C(CNS(=O)(=O)c2ccc(F)cc2)N2CCN(C)CC2)cc1 (centres undefined)
-18%	O=C(CSc1ccsc1[N+](=O)[O-])N1CCCCCC1
-1%	CCOC(=O)c1c(-c2ccc(F)cc2)csc1NC(=O)CCN1CCOCC1
-7%	COc1ccc(Br)cc1/C=C1\Oc2ccccc2NC1=O
-14%	O=C1CC(c2cccc(F)c2)SC(N(c2ccccc2)c2ccccc2)=N1 (centres undefined)
-2%	O=C(COC(=O)c1cccc(C(F)(F)F)c1)NCc1ccccc1
31%[activator]	CC(C)CNS(=O)(=O)c1cc2c3c(c1)CC(=O)N3CCC2
0%	Cc1ccccc1NC(=O)Cn1cnc2c1c(=O)n(C)c(=O)n2C

An excerpt of these results, tab-delimited.
Molecule	VDR inhibitor
CSc1ncc(F)c(N(CCO)CCO)n1	-18%
COC(=O)c1ccccc1NC(=O)NC1CCC(C)CC1 (centres undefined)	-13%
Cc1cc(=O)oc(C)c1C(=O)Nc1cccc2nonc12	4%

For convenience, 3 of the compounds above.
VDR inhibitor	mol
-6%	CN(CC(=O)Nc1cccc(C(F)(F)F)c1)Cc1ccccc1
-18%	CCn1c(NCc2ccco2)nc2ccccc21
-4%	Cc1cccc(OCCCCc2c(C)n[nH]c2C)c1C

(further entries)
VDR inhibitor	mol
6%	COc1cccc(N2CCN(C(=O)c3nn(C)c4c3CSc3ccc(C)cc3-4)CC2)c1
-2%	C[C@H](CO)N1C[C@H](C)[C@@H](CN(C)S(=O)(=O)c2cn(C)cn2)Oc2c(NS(=O)(=O)c3ccc(F)cc3)cccc2C1=O
20%	COc1ccccc1N(C)S(=O)(=O)c1ccc(C(=O)Nc2ncc(C)s2)cc1
7%	COC(=O)c1ccccc1S(=O)(=O)Nc1ccc2cn[nH]c2c1
24%	Cc1cc([N+](=O)[O-])ccc1NC(=O)Nc1ccccc1F

An excerpt of these results, tab-delimited:
compound	VDR inhibitor
Cc1nn(C)c(C)c1/C=C/C(=O)c1ccc(Cl)cc1Cl	-28%
Cc1ccc(C(C)C)c(OCC(=O)NNC(=O)Cn2[nH]c(=O)c3ccccc3c2=O)c1	-11%
CCN1C(=O)C(=Cc2cccc(OC)c2Oc2ccc([N+](=O)[O-])cc2[N+](=O)[O-])SC1=S	-17%
N#Cc1c(C(F)(F)F)cc(-c2cccs2)nc1SCC(=O)Nc1ccc(F)cc1	-10%
Cc1cccc(N(C)C(=O)CN2C(=O)COc3ccc(S(=O)(=O)N4CCCCCC4)cc32)c1	-21%&16%
